Rango release inh = inhibition of RanGTP-driven Rango-importin beta dissociation; 340,000 compounds, 0.071% hits; Biochemical FRET Rango-importin beta, RanGTP-induced dissociation; Potency, µM (top dose mostly 46.1 µM), for inactives: at the top dose activity change, negative = inhibition; O95149+P62826; active means falling FRET ratio curve, often poorly fitted, with flat reads before Ran was added; inconclusive means other falling curves, or compound fluorescence or quenching; inactive means flat or rising ratio curve;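 also: potency is read from the fitted curve at half-maximal effect; % of control where 0% means no effect; nearly all actives have a fitted effect of over 45% in size; -100% = wells without RanGTP and RCC1; the record marks most hits as doubtful in a second field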
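Rango (0.1 uM)–importin beta (0.25 uM) complex; RanGTP-RCC1 trigger; 45 min RT; CFP/YFP FRET read.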
miR-21 reporter = miR-21 reporter, rising signal. HeLa miR-21 FLuc reporter, luciferase, 48 h. 340,000 tested, under 10 active. AID 2288. Potency, µM (titrated, usually from 38.3 µM), for inactives: at the highest dose reporter change, positive = more light; active = well fitted rising curve with a large enough effect; inconclusive = small, poorly fitted or top-dose-only effect; inactive = no such curve, though single readings can be large or run the other way;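 also: % of control where 0% means no effect; miR-21 action dims this reporter so a rising signal means less miR-21 action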
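HeLa cells stably expressing CMV-driven firefly luciferase with a downstream miR-21 binding sequence, endogenously expressing miR-21, were treated with titrations (up to about 40uM final) for 48 hours at 37 degree Celsius. Luciferase luminescence was read after lysis.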
Rango-impB inh = Rango-importin beta binding inhibition. Q14974. Rango CFP/YFP FRET sensor + importin beta, 45 min. Potency, µM (titrated, usually from 92.2 µM), for inactives: at the top dose inhibition of complex formation. 340,000 compounds, 0.031% hits; active = rising FRET ratio curve, often small or poorly fitted; inconclusive = mostly compound fluorescence or quenching in the first reads; inactive = flat curves in all reads;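 also: potency is read from the fitted curve at half-maximal effect; 0% = DMSO wells and 100% = buffer wells lacking importin beta; nearly all actives have a fitted effect of over 15% in size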
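FRET biosensor (snurportin 1 IBB flanked by EYFP and cerulean), 50 nM, with compound 5 min, then 0.125 microM importin beta in PBS, 1 mM DTT, 0.02% Tween-20, 0.1% BSA. CFP/YFP ratio read after 45 min at room temperature; pre-read flags interference.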
GLA inh pH 4.5 = inhibitors of human alpha-galactosidase A at pH 4.5. 230,000 tested, under 10 active. activity change, negative = inhibition, % at 105 µM. AID 1467. purified enzyme, 4-MU-alpha-Gal fluorescence, pH 4.5; inconclusive = small, poorly fitted or top-dose-only inhibition, or a rising curve; inactive = flat fitted curve, though single readings scatter; no compound was filed as active;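 also: 0% = full activity with enzyme and -100% = basal without enzyme; dose as in the result columns while the protocol names 77 µM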
Target sequence (P06280 whole entry, looked up): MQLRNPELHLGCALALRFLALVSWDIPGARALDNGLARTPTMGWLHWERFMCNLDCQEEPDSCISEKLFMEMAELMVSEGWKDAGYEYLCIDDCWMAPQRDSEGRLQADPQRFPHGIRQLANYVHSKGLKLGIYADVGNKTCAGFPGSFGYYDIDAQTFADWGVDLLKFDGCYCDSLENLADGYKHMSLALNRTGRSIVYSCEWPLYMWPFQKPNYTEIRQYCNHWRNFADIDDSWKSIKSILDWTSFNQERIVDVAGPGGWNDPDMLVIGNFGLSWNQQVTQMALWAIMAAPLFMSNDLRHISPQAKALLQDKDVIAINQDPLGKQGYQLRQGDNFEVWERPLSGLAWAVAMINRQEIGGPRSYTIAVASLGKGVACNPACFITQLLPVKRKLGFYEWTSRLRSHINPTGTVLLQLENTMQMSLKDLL
* = called active by the depositor; ? = inconclusive; nt = no result given; & = joins results of further samples; [ ] = dose if it differs, or a comment. A portion of the library; count on the stated rates, not on these rows.

Rango release inh,miR-21 reporter,Rango-impB inh,GLA inh pH 4.5,compound
-5%,10%,-7.5%,-5,C=CCc1ccc(OCCOCCOc2cccc3ccc(C)nc23)c(OC)c1
-1%,nt,4.5%,nt,COCCN(Cc1nc2ccccc2c(=O)[nH]1)C(=O)COc1c(C)cc(Cl)cc1C
-1%,nt,-0.1%,nt,Cc1cc(Br)c(NC(=O)COC(=O)c2ccc[n+]([O-])c2)c(Br)c1
0%,4%,3.2%,nt,COc1ccc(C(=O)N(CCc2ccccc2)Cc2cccs2)c(OC)c1
19%,-2%,1.6%,1,O=C(Nc1cscc1S(=O)(=O)c1ccc(Cl)cc1)c1ccccc1Cl
-7%,0%,0.6%,-18,CCCCCOc1ccccc1C(=O)NCC(=O)O
6%,-2%,-1.0%,0,O=C(Nc1cccc([N+](=O)[O-])c1)c1ccncc1
6%,nt,0.4%,nt,Cc1ccc(Cl)c(OCCCCN2CCC(C)CC2)c1
-7%,10%,-4.6%,nt,Cc1ccc(OCC(=O)N2CCCC(CO)(CCOc3ccccc3)C2)cc1 (centres undefined)
-11%,-1%,0.7%,0,COc1ccccc1CNC(=O)C1CC(c2ccccc2C(F)(F)F)=NO1 (centres undefined)
0%,3%,-0.2%,-2,CC(=O)NC(CCS(C)(=O)=O)C(=O)Nc1ccc(Oc2ccccc2)cc1 (centres undefined)
1%,0%,-1.3%,3,COc1ccc(-c2[nH]ncc2CN2CCCC2c2nonc2C)c(F)c1 (centres undefined)
2%,0%,-7.1%,3,Cc1noc(C)c1C(=O)NCc1ccccc1Br
-21%,-3%,4.0%,nt,COc1ccc(/C=N\NC(=O)c2ccc([N+](=O)[O-])cc2)cc1COc1c(F)c(F)cc(F)c1F
20%,2%,-5.2%,1,N=c1n(CCN2CCCCC2)c2ccccc2n1CC(O)c1cccc(Br)c1 (centres undefined)
0%,nt,-0.8%,nt,O=C(COC(=O)CCC1CCCC1)Nc1ccccc1Br
nt,0%,nt,-4,Cc1nn(C)c(C)c1S(=O)(=O)N(CC(=O)NCc1ccco1)c1ccc(C(C)C)cc1
9%,nt,2.4%,nt,C[C@H](OC(=O)c1[nH]cnc1C(=O)N1CCN(C(=O)OC(C)(C)C)CC1)c1ccccc1
-5%,-1%&0%,3.9%,nt,CCOC(=O)C1CCCN(C(=O)Cn2nc(C)n3c(cc4c(OC)cccc43)c2=O)C1 (centres undefined)
15%,1%,-2.7%,5,CCN(CC)S(=O)(=O)N1CCC(C(=O)NCc2ccco2)CC1
-8%,-4%,14%,11,O=C(O)C1CSC(c2ccncc2)N1 (centres undefined)
14%,-14%,0.7%,5,CCCCN(CCCC)C(=O)CSc1nnc2n(C)c(=O)c3c4c(sc3n12)CCCC4
4%,-2%,1.5%,-1,O=C1c2ccccc2C(=O)c2c1ccc(C(=O)N1CCCCC1)c2NCCO
1%,1%,0.5%,4,Cc1cc(C)cc(OCCNC(=O)C(C)N2C(=O)c3ccccc3C2=O)c1 (centres undefined)
15%,11%,-0.8%,nt,O=S(=O)(Nc1ccc2c(c1)OCCO2)c1ccc(F)c(F)c1

Of the compounds above, 2 have a COOH group.
Rango release inh,miR-21 reporter,Rango-impB inh,GLA inh pH 4.5,compound
-7%,0%,0.6%,-18,CCCCCOc1ccccc1C(=O)NCC(=O)O
-8%,-4%,14%,11,O=C(O)C1CSC(c2ccncc2)N1 (centres undefined)

More records follow.
Rango release inh,miR-21 reporter,Rango-impB inh,GLA inh pH 4.5,compound
-10%,17%,-2.1%,-3,COc1ccc(-c2cc(C(F)(F)F)nc(N3CCN(C)CC3)n2)cc1OC
-6%,-15%,-0.6%,-6,COc1ccc(-c2ccc(SCC(=O)c3ccccc3)nn2)cc1OC
1%,-51%,3.5%,-18,CCOC(=O)c1cnc(SCc2cccc(C)c2)nc1N
-8%,-7%,2.9%,nt,CC(C)Cc1ccc(C(=O)NCc2ccc3c(c2)OCO3)o1
-2%,-5%,-0.2%,nt,CCN1CCN(CCCNC(=O)CCC(=O)N2CCOc3ccccc32)CC1
3%,-1%,0.2%,4,COC(=O)C1=C(C)N(CCc2c[nH]c3ccccc23)C(=O)/C1=C\N(C)C
5%,-15%,-3.3%,5,Cc1noc(C)c1S(=O)(=O)Nc1ccc(C(=O)N2CCN(c3ccc(F)cc3)CC2)cc1
?,nt,-0.3%,nt,C=CC[C@@H](CC(=O)N[C@H](CO)Cc1ccccc1)C(=O)NC[C@@H](OC(=O)[C@@H](CC=C)Cc1ccc(F)cc1)c1ccccc1
34%,nt,0.3%,nt,CN1C[C@@H]2[C@@H]3C(=O)N(C)C(=O)[C@@H]3[C@](C)(C1=O)N2C(=O)c1ccc(C(C)(C)C)cc1
4%,nt,-0.9%,nt,CCN(C[C@H]1N[C@@](Cc2ccccc2)(C(=O)OC)[C@H]2C(=O)N(C)C(=O)[C@@H]12)S(=O)(=O)c1ccc(C(C)(C)C)cc1
14%,3%,-4.3%,nt,CCCCC(=O)Nc1nnc(S(=O)(=O)N(CC)c2ccccc2)s1
-8%,?,?,nt,Cc1oc2c(C)c3oc(=O)c(CC(=O)N[C@@H](CCCNC(N)=O)C(=O)O)c(C)c3cc2c1C
-5%,nt,-3.8%,nt,Cc1ccc(S(=O)(=O)N2CCOC23CCN(C(=O)C(=O)NCc2ccccc2)CC3)cc1
2%,nt,5.4%,nt,CC(=O)c1ccc(N2CCN(C(=O)CN3C(=O)NC4(CCCCC4)C3=O)CC2)c(F)c1
3%,-5%,-2.2%,-5,COC(=O)CNC(=O)c1ccc(=O)oc1
8%,13%,0.0%,3,CCCC(C(=O)NC1CCCC1)N(Cc1ccc2c(c1)OCO2)C(=O)c1snc(C(N)=O)c1N (centres undefined)
3%,1%,-5.3%,nt,COc1cccc(NC(=O)CCC2CCN(C(=O)c3c(C)noc3C)CC2)c1
-4%,nt,0.1%,nt,CCCCn1c(N)c(N(Cc2ccccc2OC)C(=O)CN2C(=O)NC(C)(c3ccccc3)C2=O)c(=O)[nH]c1=O (centres undefined)
2%,-2%,-1.3%,5,Cc1ccc(S(=O)(=O)NCCOc2nc(N3CCOCC3)nc(N3CCOCC3)n2)cc1
5%,18%,0.5%,-1,CSc1nc(-c2ccc(C)cc2)[nH]c1S(=O)(=O)c1ccccc1
2%,0%,-1.5%,-4,Cc1ccccc1-n1c(SCC(=O)N2CCC(C(=O)O)CC2)nnc1-c1ccncc1
0%,nt,-0.3%,nt,Nc1ccccc1C(=O)NCCCN1CCN(c2cccc(Cl)c2)CC1
-25%,-9%,?,1,CC(=O)Nc1ccc(N2CC(C)(C)C2=O)cc1
14%,1%,4.6%,1,Cc1noc(C)c1C(=O)N1CCC(C(=O)c2ccc(F)cc2F)CC1
?,-81%,?,-5,NC1=NC(=O)/C(=C/c2cn(Cc3ccccc3)c3ccccc23)S1

Quoted at random: two records from the list
Rango release inh,miR-21 reporter,Rango-impB inh,GLA inh pH 4.5,compound
5%,18%,0.5%,-1,CSc1nc(-c2ccc(C)cc2)[nH]c1S(=O)(=O)c1ccccc1
1%,0%,-1.3%,3,COc1ccc(-c2[nH]ncc2CN2CCCC2c2nonc2C)c(F)c1 (centres undefined)

(listing goes on)
Rango release inh,miR-21 reporter,Rango-impB inh,GLA inh pH 4.5,compound
-6%,-68%,?,6,O=C(OCc1csc(-c2ccccc2)n1)c1ccc(O)cc1
5%,7%,9.1%,-4,Fc1ccc(CNCCC(Cc2ccccc2)c2ccco2)cc1 (centres undefined)
-18%,-23%,0.0%,-3,CCOC(=O)c1c(NC(=O)COC(=O)CNC(=O)c2ccco2)sc(C)c1C
6%,5%,0.8%,-2,COc1ccc(NC(=O)CSc2nnc(-c3ccccn3)n2N)c(OC)c1
6%,-2%,3.7%,5,COCCCNC(=O)C1CCN(S(=O)(=O)N(CC(C)C)CC(C)C)CC1
-12%,20%,-1.1%,1,O=C1CN(C(=O)CSc2nc3ccccc3c(=O)n2Cc2ccc(F)cc2)c2ccccc2N1
0%,-2%,0.7%,-6,CCOC(=O)C1=C(CC)Nc2ccccc2N/C1=N\S(=O)(=O)c1ccc(C(=O)OCC)cc1
-7%,nt,0.7%,nt,Cc1cc(-n2c(C)cc(C(=O)COc3cccnc3[N+](=O)[O-])c2C)no1
0%,nt,4.5%,nt,COc1ccccc1CCNS(=O)(=O)CCNC(=O)c1ccc2c(c1)OCO2
10%,-6%,4.0%,0,CC1(C)Cc2[nH]c(=O)c(C#N)cc2CS1
16%,-25%,-2.2%,-7,CC(C)C(=O)N/N=C/c1ccc(OCc2ccccc2)cc1
-12%,-6%,0.9%,1,CCOc1ccc(-c2nnc(SCC(=O)N3CCN(c4ccccc4)CC3)o2)cc1
0%,11%,-4.2%,-28,CNC(=O)c1[nH]cnc1C(=O)N[C@@H](Cc1ccccc1)C(=O)OCc1ccccc1
4%,nt,3.4%,nt,CC(C)NC(=O)CSc1ccccc1C(=O)NNC(=O)Cn1ccc(C(F)(F)F)n1
-8%,3%,0.0%,-7,CCC(=O)N1CCc2cc(S(=O)(=O)NC(C(=O)Nc3cccc(C)n3)C(C)C)ccc21 (centres undefined)
2%,0%,1.1%,nt,CCn1c(SCC(=O)N(C)Cc2ccc(OC)c(F)c2)nc2cc(S(N)(=O)=O)ccc21
-1%,nt,0.5%,nt,Cc1ccc(C)c(S(=O)(=O)N2CCCCC2CCNC(=O)C(=O)NCc2ccccc2)c1 (centres undefined)
18%,2%,-3.5%,4,CCCC(=O)Nc1ccc(C(=O)N/N=C/c2cccnc2)cc1
0%,nt,-0.5%,nt,CC(C)(C)OC(=O)NCCCCCNC(=O)c1nc[nH]c1C(=O)NCc1ccc(CNC(=O)OC(C)(C)C)cc1
-1%,6%,-0.7%,-7,O=C(CN1C(=O)c2ccccc2S1(=O)=O)N1CCN(c2ccccc2)CC1
6%,-2%,-2.1%,1,COc1ccc(C(=O)C2CCN(C(=S)NCCc3ccccc3)CC2)cc1
?,8%,3.5%,-16,Cc1ccc(S(=O)(=O)N2CCC(=O)N(C(COCc3ccc(C(F)(F)F)cc3)Cc3ccccc3)CC2)cc1 (centres undefined)
-11%,-7%,1.6%,-3,O=C(c1ccccc1/S(=N/S(=O)(=O)c1ccccc1)N1CCOCC1)N1CCOCC1 (centres undefined)
?,2%,-1.3%,nt,COc1cc(NC(=O)CC(C)n2ccnc2)cc(OC)c1 (centres undefined)
14%,-9%,9.3%,-16,Cc1cccc2nc3c(nc12)-c1ccccc1C3=O

Only Rango-impB inh and miR-21 reporter, for 6 of the compounds above:
mol | Rango-impB inh | miR-21 reporter
COc1ccccc1CCNS(=O)(=O)CCNC(=O)c1ccc2c(c1)OCO2 | 4.5% | nt
CC1(C)Cc2[nH]c(=O)c(C#N)cc2CS1 | 4.0% | -6%
CC(C)C(=O)N/N=C/c1ccc(OCc2ccccc2)cc1 | -2.2% | -25%
CCOc1ccc(-c2nnc(SCC(=O)N3CCN(c4ccccc4)CC3)o2)cc1 | 0.9% | -6%
CNC(=O)c1[nH]cnc1C(=O)N[C@@H](Cc1ccccc1)C(=O)OCc1ccccc1 | -4.2% | 11%
CC(C)NC(=O)CSc1ccccc1C(=O)NNC(=O)Cn1ccc(C(F)(F)F)n1 | 3.4% | nt

Next section.
Rango release inh,miR-21 reporter,Rango-impB inh,GLA inh pH 4.5,compound
9%,2%,0.1%,-7,COc1ccc(NC(=O)CC2C(=O)N(c3cccc(OC)c3)C(=O)N2CCC(C)C)cc1 (centres undefined)
-5%,1%,3.8%,2,CCOc1cccc(NCc2cc3c(C(C)(C)C)nn(-c4ccccc4)c3[nH]c2=O)c1
?,1%,?,nt,CCc1c(C)c2cc(Cl)c(O)c(CN3CCCC3)c2oc1=O
?,-3%,?,1[21.1 µM],Cc1ccc(N=Cc2nc(-c3ccc(C)cc3)oc2O)cc1
?,nt,?,nt,Cc1cc2oc3ccc(NCCC4CCCN4C)cc3c(=O)c2cc1C (centres undefined)
1%,-1%,-1.9%,-12,Cc1cc(C(=O)Cn2nnc3ccccc3c2=O)c(C)n1-c1c(C)n(C)n(-c2ccccc2)c1=O
16%,nt,0.4%,nt,CN(O)C(=S)c1ccccc1
-7%,nt,-1.8%,nt,CC(=O)C1C(C)CC2C3CCC4CC(=O)CCC4(C)C3CCC21C (centres undefined)
1%,11%,0.2%,6,COc1ccc(NC(=O)N2CCCC(CNS(=O)(=O)c3cccs3)C2)c(C)c1 (centres undefined)
1%,-12%,2.9%,0,Clc1ccc(Nc2ncn[nH]2)cc1
-8%,nt,-3.5%,nt,COc1ccccc1NC(=O)CSc1nccc(-c2ccco2)n1
